HTT promoter inh = Primary qHTS for Identification of Small Molecule Inhibitors of Huntingtin Promoter Activity; HEK293 HTT promoter firefly luciferase reporter (activity 0% = vehicle and -100% = no light), 24 h; Potency, µM (highest dose often 57.5 µM), without a hit: at the highest dose activity change, negative = inhibition, most hits filed as inhibitors; 48,000 compounds, 0.93% hits; active = well fitted inhibition curve with a large enough effect; inconclusive = small, poorly fitted or top-dose-only effect; inactive = no such curve, though single readings can be large or run the other way; also: nearly all actives have a fitted effect of over 50% in size
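HEK293 luciferase promoter-reporter cells (2,500/well) plated 24 h, then compounds added at up to 57.5 uM final for 24 h at 37 °C. Firefly luminescence by Dual-Glo, normalized to vehicle (0%) and zero RLU (-100%).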
PMP22 txn = Cell-based coincidence reporter assay to measure PMP22 gene transcription in S16 Pmp22-F2sN cells - Primary screen | S16 Pmp22-F2sN Schwann cells (luciferase reporters placed in the Pmp22 gene), FLuc/NLuc coincidence luminescence, 24 h | Potency, µM (titrated, usually from 57.5 µM), for the others: at the highest dose activity change, negative = inhibition, most hits filed as inhibitors | 43,000 compounds, 2% hits; active = clear falling dose curves in both reporters; inconclusive = both reporters move, but less clearly or upward; inactive = either reporter flat; the % is the NLuc reporter signal; also: % is scaled to controls: 0 for no effect and ±100 for the full control effect; some results filed as inactive show a strong effect at the top dose
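Transcriptional readout in edited S16(c9) cells: two luciferases reported from the Pmp22 locus, measured in turn after 24 h compound incubation.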
The depositor's hits bear a star; ? = inconclusive; . = not tested or not shown; [ ] = dose if it differs, or a comment. Potency is read from the fitted curve at half-maximal effect.

canonical_smiles | HTT promoter inh | PMP22 txn
CCc1nc2nc(C)c(NS(=O)(=O)c3ccc(C)cc3)c(=O)n2[nH]1 | -7% | ?
CN1c2cc(Cl)ccc2-c2nc(SCC(=O)Nc3ccc(F)cc3F)ncc2S1(=O)=O | ? | ?
COc1cc(NC(=O)Nc2c[nH]c(=O)[nH]c2=O)cc(OC)c1OC | 11% | -6%
Cn1nc(C(=O)NCc2cccc(Cl)c2)c2c1-c1ccccc1S(=O)(=O)C2 | -15% | -20%
CCc1ccc(NC(=O)c2ccc(F)c(S(=O)(=O)NCCc3ccc(OC)c(OC)c3)c2)cc1 | ? | ?
COc1cccc(C(c2sc3nc(-c4ccco4)nn3c2O)N2CCOCC2)c1 (centres undefined) | 4% | 4%
Cc1cccc(OCC(=O)Nc2nonc2-c2ccc(Br)cc2)c1C | -30% | -17%
Cc1ccc(Cl)cc1-n1ncc2c(Nc3ccc4c(c3)OCCO4)ncnc21 | ? | ?
CCc1ccccc1N1C(=O)N(Cc2cc(=O)n3ccccc3n2)c2ccccc2S1(=O)=O | ? | ?
Cc1ccccc1NC(=O)Cn1c(=O)n(CCCC(=O)NCc2ccc3c(c2)OCO3)c(=O)c2ccccc21 | -3% | ?
Cc1ccc(NC(=O)Cn2nnc3sc4c(c3c2=O)CCC(C)C4)cc1 (centres undefined) | -9% | ?
Cc1cccc(NC(=O)CSc2nc(C)c(Cc3ccccc3)c(=O)[nH]2)c1 | -11% | 1%
CCc1ccccc1NC(=O)c1nnn(-c2ccc(F)cc2)c1C | 36%[activator] | -6%
COc1ccc(Nc2oc(-c3ccc(COc4cccc(C)c4)o3)nc2C#N)cc1 | -18% | ?
CC1=C(c2ccc(F)cc2)S(=O)(=O)N=C1N1CCC(C(=O)NCCc2ccccc2C)CC1 | -15% | -6%
CCOc1cc(C2c3c(oc4ccccc4c3=O)C(=O)N2Cc2ccc(OC)cc2)ccc1O (centres undefined) | 4% | -15%
CCc1ccc(S(=O)(=O)c2cn(CC(=O)Nc3cccc(C)c3)c3ccc(Cl)cc3c2=O)cc1 | -17% | -14%
COc1cc(/C=C/c2nc(C#N)c(N3CCN(C)CC3)o2)cc(OC)c1OC | -8% | -16%
O=C(Cn1c(=O)ccc2cc(S(=O)(=O)N3CCCC3)ccc21)Nc1ccccc1 | -8% | -16%
COCCNC(=O)CCCn1c(SCC(=O)Nc2ccc(F)cc2)nc2c(sc3ccccc32)c1=O | ? | -12%
Cc1cc(NC(=O)C(C)(C)C)cc(-c2nc3ncccc3o2)c1O | -11% | -25%
O=C(CSc1nc2nccnc2c(=O)n1CCc1c[nH]c2ccccc12)Nc1ccccc1F | 2% | ?
CC(C)CNC(=O)C1=CC(c2ccc3c(c2)OCO3)=NS(=O)(=O)N1C | -13% | 0%
Cn1c(SCc2ccc(C(F)(F)F)cc2)nc2c([nH]c3ccccc32)c1=O | 0% | -12%

Compound profiles, from the list above.
O=C(CSc1nc2nccnc2c(=O)n1CCc1c[nH]c2ccccc12)Nc1ccccc1F reads HTT promoter inh: 2%; PMP22 txn: ?
O=C(Cn1c(=O)ccc2cc(S(=O)(=O)N3CCCC3)ccc21)Nc1ccccc1 reads HTT promoter inh: -8%; PMP22 txn: -16%

Following part:
canonical_smiles | HTT promoter inh | PMP22 txn
COc1ccc(-c2cn3c(n2)sc2cc(C(=O)Nc4cc(OC)cc(OC)c4)ccc23)cc1 | ? | -2%
CN(C)c1ccc(NC(=O)Cn2cc(S(=O)(=O)Cc3ccccc3Cl)c3ccccc32)cc1 | -12% | -41%
Cc1oc2ncnc(N3CCCCC3)c2c1C(=O)N1CCN(c2cccc(Cl)c2)CC1 | -25% | ?
CCOc1ccc(NC(=O)CCS(=O)(=O)c2ccc(Br)s2)cc1 | -14% | 12%
CCOc1ccc(N(CC)C(=O)C2CCN(S(=O)(=O)c3cccc4nonc34)CC2)cc1 | 3% | -35%
Cc1nc(N2CCCC2)ncc1C(=O)Nc1ccc(F)cc1F | 12% | -4%
Cc1ccc(NC(=O)CSc2nnc(-c3cc4occc4n3C)n2-c2ccccc2C)c(Cl)c1 | -26% | -5%
Cc1nc(N2CCOCC2)c2c(C(=O)N3CCN(c4cccc(C(F)(F)F)c4)CC3)c(C)oc2n1 | -12% | ?
Cc1ccccc1C(=O)N1CCC(c2nc(-c3ccc(S(=O)(=O)N4CCCC4)cc3)no2)CC1 | -14% | -2%
CCCNC(=O)Nc1cc(C(=O)NCc2cccc(OCC)c2)ccc1N1CCCC1 | -23% | ?
CCN(CC)Cc1ccc2cc(COC(=O)Nc3ccc(C(=O)NO)cc3)ccc2c1 | 161%[activator] | .
CCCCN(C)CC(O)Cn1cc(/C=C/C(=O)c2ccc(OCC)cc2)c2ccccc21 (centres undefined) | -29% | ?
COc1ccc(NC(=O)c2oc3ccccc3c2NC(=O)c2cc(=O)c3c(C)cc(C)cc3o2)cc1 | 21% | ?
CCc1ccc(N2CC(c3nnc(NC(=O)c4ccco4)s3)CC2=O)cc1 (centres undefined) | -15% | 17%
CC(C)c1nn2c(=O)cc(COC(=O)c3ccccc3NC(=O)c3cccs3)nc2s1 | -30% | ?
COc1cc(Cl)c(NC(=O)CN(C)S(=O)(=O)c2ccc3c(c2)CCCC(=O)N3)c(OC)c1 | ? | ?
CC(C)c1ccc(OCC(=O)N(Cc2ccc(N(C)C)cc2)C2CCS(=O)(=O)C2)cc1 (centres undefined) | ? | -24%
CC(C)N(Cc1ccccc1)c1ncnc2c1nnn2C | -10% | -10%
COc1ccc(CNC(=O)C2CCN(S(=O)(=O)c3ccc4c(c3)CCCN4C(C)=O)CC2)cc1 | -18% | 27%
c1ccc(-c2oc3ncnc(NC[C@@H]4CCCO4)c3c2-c2ccccc2)cc1 | ? | .
CCC1CN(C(=O)N2CCC(C(=O)NCc3ccccc3F)CC2)c2ccccc2O1 (centres undefined) | -20% | -46%
COc1ccccc1-c1nnc(C2CCN(C(=O)c3ccccc3C)CC2)o1 | -17% | 18%
O=C(Nc1nnc(SCc2cc(=O)n3cc(Cl)ccc3n2)s1)c1cccc(F)c1 | 1% | -3%
CCOc1ccc(C(=O)NCC(c2ccc(Cl)cc2)N2CCCCC2)cc1 (centres undefined) | 8% | -2%
COc1ccccc1-c1nc2c(c(SCC(=O)Nc3c(C)cc(C)cc3C)n1)Cc1c(CO)cnc(C)c1O2 | -14% | -16%
Cc1cccc(-n2ncc3c(N4CCN(c5ccccc5)CC4)ncnc32)c1 | -14% | 0%
CC1CCc2nc3ncn(Cc4cccc(F)c4)c(=O)c3cc2C1 (centres undefined) | 24% | -13%
CCCCN(CCCNC(=O)c1c(C)oc2nc[nH]c(=O)c12)Cc1ccccc1 | -15% | -17%
Cc1oc(-c2ccc(Cl)cc2)nc1CN1CCCC(C(=O)NCc2ccccc2)C1 (centres undefined) | ? | 18µM*
O=C(c1ccco1)N1CCNCC1 | -3% | .
COc1ccc(CCC(=O)NC2CC(=O)N(c3ccc(F)cc3)C2)cc1 (centres undefined) | -3% | 0%
Cc1cc(C)cc(-n2nnc(-c3nc(-c4ccc5c(c4)OCO5)no3)c2C)c1 | -8% | 12%
COc1ccc(-n2ccnc2SCC(=O)Nc2nnc(C)s2)cc1 | ? | -16%
CCCOc1ccc(C(=O)Nc2cc(-c3nc4cc(C)cc(C)c4o3)ccc2C)cc1 | -13%[11.5 µM] | 34%
Cc1cc(C2CCCCC2)n(O)c(=O)c1 | ? | .
O=C(Cn1ncc2c3ccccc3n(Cc3ccc(Cl)cc3)c2c1=O)NCCCc1ccccc1 | 0% | 16%
COc1ccccc1CNC(=O)c1cc2cc3ccc(Cl)cc3nc2o1 | 0% | -3%
O=C(CSc1nccn1Cc1ccco1)Nc1ccc(F)cc1 | -4% | 12%
COc1ccccc1N1CCN(c2ncnc3onc(C)c23)CC1 | ? | ?
CN(C)S(=O)(=O)c1ccc2c(c1)nnn2CCNC(=O)Nc1ccc(Br)cc1 | -28% | -3%
O=C(Cn1cc(SCc2ccccc2F)c2ccccc21)N1CCCCCC1 | 6% | ?
Cc1ccc(NCc2ccccc2-c2nnc(-c3ccccc3Cl)o2)c(C)c1 | -4% | ?
CCOCCc1nn2c(=O)cc(COC(=O)C3CCCCC3)nc2s1 | -4% | -10%
Cc1ccc(C2=Nc3ccccc3N(CC(=O)NCc3ccc(F)cc3)C(=O)C2)cc1C | 44%[activator] | ?
Cc1ccc(Nc2c3c(nc4nncn24)CCC3)cc1 | -22% | ?
CCC1Oc2ccc(C)cc2N(CC(=O)NCc2ccc(OC)cc2)C1=O (centres undefined) | -5% | 16%
CCOC(=O)c1ccc2c(c1)N(CC(=O)N(C)c1ccccc1)C(=O)c1ccccc1S2 | -38% | 6%
CCCC(=O)Nc1ccccc1C(=O)OCc1cc(=O)n2nc(C(C)C)sc2n1 | -11% | -38%
COc1ccc(NC(=O)C2CCN(c3cc(C)nc4c(-c5ccc(Cl)cc5)c(C)nn34)CC2)cc1 | -14% | -2%
COc1ccccc1NC(=O)c1c(NCc2ccc(OC)c(OC)c2OC)sc2c1CCC2 | -25% | ?
CC(=O)c1cccc(NC(=O)c2ccc3c(c2)CCN3S(=O)(=O)c2ccccc2)c1 | ? | ?
CC(C)c1ccc(Nc2sc(C(=O)c3ccccc3)c(N)c2S(=O)(=O)c2ccccc2)cc1 | ? | ?
CCOc1cccc(C2c3c(oc4ccc(F)cc4c3=O)C(=O)N2CCc2ccc(OC)cc2)c1 (centres undefined) | 6% | 3%
COC(=O)c1ccc([C@H]2Nc3ccc(S(=O)(=O)Nc4ccc(C)cc4)cc3[C@H]3C=CC[C@H]32)cc1 | -20% | -14%
CCc1sc(Nc2ccc(Cl)cc2)nc1-c1cc2cccc(OC)c2oc1=O | ? | -24%
COc1ccc(-c2cn3nc(N4CCCC(C(=O)Nc5ccccc5F)C4)sc3n2)cc1 (centres undefined) | ? | ?

Next part.
canonical_smiles | HTT promoter inh | PMP22 txn
COc1cc2ncc3c(-c4ccccc4)nn(CC(=O)NC4CCCCC4)c3c2cc1OC | -19% | 9%
CCOC(=O)C1CCN(c2nc3ccccc3nc2Cl)CC1 | -3% | -25%
COc1ccc2c(c1)CC[C@@H](CN(C)CC(=O)O)[C@H]2c1ccccc1 | ? | .
CCOC(=O)C1=C(CN2CCN(c3ccccc3F)CC2)NC(=O)NC1c1ccc(OC)cc1 (centres undefined) | ? | 10%
CCc1nn(CC(=O)NCCN(CC)CC)c(=O)c2cc3occc3n12 | -6% | -7%
CC(C)CNC(=O)N1[C@H](c2cccs2)[C@@H](C)C(=O)[C@@H](C)[C@@H]1c1cccs1 | -18% | -19%
Cc1cc2nc(-c3cc(NC(=O)c4cc5ccccc5o4)ccc3Cl)oc2cc1C | 21% | -19%
COc1ccc2c(c1)c1c(c(=O)n(-c3cccc(Cl)c3)c(=O)n1CC(=O)N1CCCC1)n2C | -4% | ?
Cc1ccc(NC(=O)c2ccc(CN3C(=O)CCn4nc(C)cc43)cc2)c(Cl)c1 | -8% | -30%
COc1ccc(N2CCN(c3cc(C)nc4nc(-c5ccc(C)cc5)nn34)CC2)cc1 | -11% | 9%
CN1C(C)(C)CCCC1(C)C | 1% | .
CCOC(=O)N1CCC(NC(=O)c2cnn(-c3ccc(C)cc3)c2C2CCN(C(=O)OC(C)(C)C)CC2)CC1 | 3% | -13%
Cc1nc2ccccn2c(=O)c1NC(=O)c1c(F)cccc1F | 2% | 7%
CCOC(=O)Cn1c(CN2CCN(c3ccc(OC)cc3)CC2)nc2c1c(=O)[nH]c(=O)n2C | -3% | -17%
CC(C)(C)C(=O)Oc1ccc2c(c1)nc(NC(=O)c1cccc([N+](=O)[O-])c1)n2CCCO | -3% | .
CCc1ccccc1NC(=O)Cn1cc2c(n1)CCC(C)C2 (centres undefined) | -16% | -6%
COc1ccc(-n2c(=O)c3sc4ccccc4c3n(CC(=O)N3CCCC3)c2=O)cc1 | -10% | -2%

Sorted by length of the SMILES (smallest number first): part of the list above.
canonical_smiles | HTT promoter inh | PMP22 txn
CN1C(C)(C)CCCC1(C)C | 1% | .
CCc1ccccc1NC(=O)Cn1cc2c(n1)CCC(C)C2 (centres undefined) | -16% | -6%
Cc1nc2ccccn2c(=O)c1NC(=O)c1c(F)cccc1F | 2% | 7%
Cc1ccc(NC(=O)c2ccc(CN3C(=O)CCn4nc(C)cc43)cc2)c(Cl)c1 | -8% | -30%
COc1ccc(-n2c(=O)c3sc4ccccc4c3n(CC(=O)N3CCCC3)c2=O)cc1 | -10% | -2%
CC(C)(C)C(=O)Oc1ccc2c(c1)nc(NC(=O)c1cccc([N+](=O)[O-])c1)n2CCCO | -3% | .

Bioassay records: PubChem BioAssay, National Center for Advancing Translational Sciences (NCATS)

Hits appear at their usual frequency. About 2.6% of those tested had a hit in this group.
